# Screening data (PubChem BioAssay)
# D2 agonist: human D2 receptor agonism in beta-arrestin assay; P14416; DiscoveRx PathHunter D2 beta-arrestin, luminescence, 90 min; 100% = 57 uM dopamine signal; activation, % (test concentration not listed); 360,000 compounds, 0.084% hits; AID 624465; in the data active = activation above about 40%; inconclusive = about 15% to 40%; inactive = below about 15%; further: compound concentration not given in the record; the text of the record calls up to 30% inactive
# Target sequence (P14416 whole entry, looked up): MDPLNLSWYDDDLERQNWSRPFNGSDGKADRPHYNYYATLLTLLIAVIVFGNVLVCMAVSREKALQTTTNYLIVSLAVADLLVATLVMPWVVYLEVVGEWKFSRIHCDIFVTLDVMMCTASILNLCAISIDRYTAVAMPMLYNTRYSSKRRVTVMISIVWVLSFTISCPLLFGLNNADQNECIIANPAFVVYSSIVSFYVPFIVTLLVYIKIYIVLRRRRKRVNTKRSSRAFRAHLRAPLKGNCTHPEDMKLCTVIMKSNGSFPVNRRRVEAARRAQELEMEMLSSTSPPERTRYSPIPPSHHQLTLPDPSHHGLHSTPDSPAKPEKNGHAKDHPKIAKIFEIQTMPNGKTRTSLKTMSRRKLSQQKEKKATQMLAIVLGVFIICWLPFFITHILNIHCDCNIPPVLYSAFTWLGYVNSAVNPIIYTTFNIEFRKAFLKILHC
#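 Agonist mode: compounds alone added to overnight-plated D2 PathHunter cells for 90 min at 37 C, with 57 uM final dopamine (EC100) defining full response. Beta-arrestin recruitment detected by chemiluminescent reagent, read after 1 h at ambient temperature.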
# Six1-Eya2 inh: Six1/Eya2 interaction inhibition; activity change, % (no concentration beside the values); 360,000 compounds, 0.56% hits; AlphaScreen GST-Six1/His-Eya2 binding, biochemical; stronger effect = lower value; control for the full effect not named in the record; Q15475+O00167; in the data active = activity change below about -65%; inconclusive = about -30% to -65%; inactive = above about -30%; further: on the % scale 0 is the no-effect control and ±100 the full control effect
#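 Homogeneous AlphaScreen proximity assay pairing GST-Six1 with His-tagged Eya2 (added as 5X mix: 250 nM and 500 nM) in 50 mM Tris pH 8.0, 300 mM NaCl, 1 mM TCEP. Glutathione donor and nickel acceptor beads; 1 h, 37 °C, dark.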
# PINK1 expr mod: changes PINK1 expression | PINK1 immunofluorescence, high-content cytometry, 24 h | Potency, µM (top dose mostly 76.6 µM), inactives show at the highest dose activation (PINK1 increase), hits mostly activators | 410,000 compounds, 0.2% hits | AID 624263; active = well fitted activation curve with a large enough effect; inconclusive = small, poorly fitted or top-dose-only effect; inactive = flat fitted curve, though single readings scatter; cell line not stated here;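 further: potency means the concentration at half of the fitted maximal effect; % of control where 0% means no effect; nearly all actives have a fitted effect of over 65% in size; a mitochondrial uncoupler was the plate control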
#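 Stable cell line treated 24 h with compounds at 5 concentrations (CCCP controls), then fixed and immunostained for PINK1 plus nuclear and cell stains; PINK1 immunofluorescence quantified by laser-scanning microplate cytometry.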
# CtBP-E1A inh: blocks the CtBP interaction with E1A | activity change, % (test concentration not listed) | AlphaScreen GST-E1A/His-CtBP binding, 1536-well; stronger effect = lower value; control for the full effect not named in the record | 340,000 compounds, 0.49% hits; in the data active means activity change below about -65%; inconclusive means about -30% to -65%; inactive means above about -30%; further: on the % scale 0 is the no-effect control and ±100 the full control effect
#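 In 5 uL wells, 23 nL compound meets equimolar GST-E1A and His-CtBP (5X stock 125 nM each) for 2 h, 37 °C. Beads (5X, 50 ug/mL) then 1 h, 37 °C, dark.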
# TRPML1 agonist: human mucolipin-1 channel agonism; Q9GZU1; TRPML1-expressing cells, Ca2+ dye fluorescence, FDSS; host cell line not named in the record; reference of the full effect not given here; activation, % (no concentration beside the values); 410,000 compounds, 0.12% hits; in the data active = activation above about 50%; inconclusive = about 30% to 50%; inactive = below about 30%; further: 0% is about no effect; the text of the record puts the active cut at 80%
# Target sequence (Q9GZU1 whole entry, looked up): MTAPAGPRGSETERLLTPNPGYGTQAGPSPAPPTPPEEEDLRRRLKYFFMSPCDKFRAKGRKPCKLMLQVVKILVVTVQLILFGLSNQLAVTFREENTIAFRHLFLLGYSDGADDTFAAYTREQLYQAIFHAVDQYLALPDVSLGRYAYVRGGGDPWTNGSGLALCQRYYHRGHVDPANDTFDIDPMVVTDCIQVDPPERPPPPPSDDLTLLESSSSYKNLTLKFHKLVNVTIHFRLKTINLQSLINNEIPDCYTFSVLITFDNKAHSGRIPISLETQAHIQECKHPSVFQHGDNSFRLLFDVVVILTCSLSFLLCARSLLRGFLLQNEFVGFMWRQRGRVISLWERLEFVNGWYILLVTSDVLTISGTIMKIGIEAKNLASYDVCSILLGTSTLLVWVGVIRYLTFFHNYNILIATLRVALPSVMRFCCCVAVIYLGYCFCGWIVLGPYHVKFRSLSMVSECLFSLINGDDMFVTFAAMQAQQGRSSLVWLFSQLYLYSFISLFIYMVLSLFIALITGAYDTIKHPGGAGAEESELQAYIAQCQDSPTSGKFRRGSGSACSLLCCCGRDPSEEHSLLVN
#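 Tetracycline-induced TRPML1-DL cells are seeded and incubated overnight before loading with a no-wash Ca2+ dye and quencher. Agonist activity is taken from the 110 s fluorescence read following compound pin-transfer on an FDSS, before EC80 54-4 challenge.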
# TRPML1 blocker: inhibitors of human TRPML1 channel. activity change, negative = inhibition, % (test concentration not listed). AID 624415. 390,000 compounds, 0.02% hits. TRPML1-inducible cells, Ca2+ dye fluorescence, FDSS; stronger effect = lower value; inhibition of EC80 agonist-evoked calcium signal; in the data active means activity change below about -50%; inconclusive means about -30% to -50%; inactive means above about -30%;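 further: stimulus is agonist 54-4 at its EC80 concentration; on the % scale 0 is the no-effect control and ±100 the full control effect; compound concentration not given in the record; the text of the record puts the active cut at -80%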
#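 Tet-induced TRPML1-DL cells loaded with Ca8 no-wash calcium dye were read kinetically on FDSS. Compound addition was followed by EC80 agonist 54-4 (4 uM final); inhibition was read over 110 s.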
# Numbers without * were called inactive; ? = inconclusive; . = not tested or not shown; & = joins results of further samples; [ ] = remark or other dose. No enrichment for hits (roughly 1% active in at least one column).
SMILES,D2 agonist,Six1-Eya2 inh,PINK1 expr mod,CtBP-E1A inh,TRPML1 agonist,TRPML1 blocker
CC(C)n1nc(CC(=O)O)c2ccccc2c1=O,-2.3,6.2,-0.9%,-7.2,0.0,-7.6
CC1(C)Cc2cccc(OCC(=O)OCC(=O)NCc3ccc(F)cc3)c2O1,-0.5,2.5,0.5%,6.4,-0.2,48.2
O=C(NC(=S)Nc1ccccc1C(=O)O)c1cncc(Br)c1,-1.6,1.7,-1.1%,4.0,0.0,39.3
COc1ccc(N(C)S(=O)(=O)c2ccc3c(c2)CC(C)N3C(=O)C2CC2)c(OC)c1 (centres undefined),3.6,1.0,1.2%,-0.5,2.6,41.7
O=C(C[C@H]1C[C@@H]2c3cc(NS(=O)(=O)c4ccccc4)ccc3O[C@@H]2[C@H](CO)O1)NC1CCCC1,-7.5,3.8,2.5%,5.6,-0.5,-5.1
CCOC(=O)N/N=C(\CCC(=O)O)c1cccs1,-2.1,8.2,0.1%,3.0,.,.
CCC(C(=O)O)N1C(=O)/C(=C/C(C)=C/c2ccccc2)SC1=S (centres undefined),-2.9,5.7,0.6%,-0.5,0.3,-7.1
CCOC(=O)CNC(=S)N(Cc1ccccc1F)C1CCCCC1,-4.1,9.0,0.4%,0.0,-0.4,-3.0
CCN(CC)c1ccc(C2CC(=O)NC3=C2C(=O)CC(C)(C)C3)cc1 (centres undefined),0.4,-16.1,-1.2%,-3.1,0.7,1.3
CCN(CC)CCN1C(=O)c2ccccc2NC1c1ccc(N(C)C)cc1 (centres undefined),-6.9,-8.9,-2.6%,-1.2,-0.9,-6.8
Cc1noc(C)c1NC(=O)N(C)C[C@H]1Oc2ccc(NC(=O)Cn3cnnn3)cc2C(=O)N([C@H](C)CO)C[C@@H]1C,-3.5,-0.7,-0.7%,2.1,-0.6,-4.1
C=Cc1ccc(Cn2c(C(=O)O)c(CNCCc3ccco3)c3ccc(C)cc32)cc1,.,.,28.9%,.,3.1,20.1
CCOC(=O)[C@]12CCC=C1N(Cc1ccccc1)C(=O)[C@H](CC(=O)NCC1CCCCC1)C2,.,5.2,-0.7%,-7.1,-0.7,.
Cc1cc(OC(C)C)nc(-c2ccccc2O)n1,-1.8,29.7,-1.2%,17.9,-1.0,2.3
COCCCNC(=O)c1cc2c(-c3ccc(Cl)cc3)nn(C)c2s1,4.1,?,2.4%,?,0.9,0.3
Cc1nc(C)c(C(=O)O)c(-c2cccs2)c1C(=O)O,1.6,1.9,-1.6%,3.1,0.8,57.6
CCc1c(CN2CCN(c3cccc(C)c3C)CC2)csc1C,.,.,4.4%,.,-1.0,-20.4
COc1cc(/C=C2/C(=O)ON=C2C)cc(Cl)c1O,-6.5,-2.9,4.7%,9.7,1.8,-13.5
O=C1CN(c2nnnn2-c2ccccc2)CCN1,-3.2,2.3,-2.4%,5.8,0.7,-12.4
N#CC(c1cccc(C(F)(F)F)c1)(c1ncc(C(F)(F)F)cc1Cl)N1CCOCC1 (centres undefined),1.2,5.7,0.5%[38.3 µM],13.8,56.5*,-6.6
CCc1cccc(C)c1NC(=O)Cn1ccn(-c2ccc(F)cc2)c(=O)c1=O,.,.,2.1%,.,0.7,4.8
CC(NC(=O)Cn1c(=O)oc2cc(S(=O)(=O)N3CCCCCC3)ccc21)c1ccccc1 (centres undefined),.,.,0.8%,.,0.4,15.0
COc1cccc(NC(=O)Cn2cnc3sc(C)c(S(=O)(=O)N4CCCCC4)c3c2=O)c1,-2.4,0.0,-2.7%[38.3 µM],-4.5,0.6,12.3
COc1cc(NC(=O)CN2C(=O)COc3ccc(S(=O)(=O)N4CCOCC4)cc32)cc(OC)c1,6.8,-11.3,0.6%,-21.9,1.9,3.2
CC(=C/c1ccc(C(C)C)cc1)/C=N/NC(=O)CSc1ccccn1,-3.8,-2.1,3.5%,-0.8,1.2,-0.2
# Following part:
SMILES,D2 agonist,Six1-Eya2 inh,PINK1 expr mod,CtBP-E1A inh,TRPML1 agonist,TRPML1 blocker
CCC(=O)N1CCc2cc(CNC(=O)c3ccc(F)cc3)ccc21,.,.,0.6%,.,1.6,5.3
C=C1C(=O)C23CCC4C(C)(C(=O)OC)CCCC4(C)C2CCC1(O)C3 (centres undefined),-7.9,0.2,-6.9%,-3.2,7.7,42.7
Cc1ccnc(NC(=O)CCC(=O)N(CC(=O)NC(C)(C)C)C2CCCC2)c1,-0.1,-6.3,0.5%,-0.1,1.4,-15.0
CCc1nc2ccc(C(=O)NCCCn3ccnc3)cn2c1N(C)CCCc1ccccc1,-3.5,-21.1,3.2%,-14.0,-0.5,.
COc1ccc(OC)c(CC(NC(C)=O)C(=O)NC2CCN(c3nnnn3-c3ccccc3)CC2)c1 (centres undefined),-4.3,10.6,-0.4%,.,-0.8,9.6
CCOC(=O)N1CCN(C(=O)CSc2nc(CC)nc3c2c(=O)n(C)c(=O)n3C)CC1,0.8,-1.5,0.4%,4.8,.,.
O=C(NCc1ccco1)c1cc2cc3ccc(Cl)cc3nc2o1,3.6,-14.0,2.9%,-3.7,-0.1,-1.4
c1ccc2c(c1)[nH]c1c(N3CCOCC3)ncnc12,4.6,-0.9,.,11.5,0.6,-3.7
CC1CC(C)CN(C(=O)COC(=O)CCC(=O)c2cccs2)C1 (centres undefined),-1.0,-10.3,1.1%,-12.5,-1.0,-12.0
CN(C)S(=O)(=O)c1ccc(N2CCCC2)c(C(=O)Nc2nc(-c3ccc(F)cc3)cs2)c1,-1.4,9.2,-1.7%,2.1,1.5,-0.4
CCCCOc1ccc(C(=O)N(Cc2ccccc2)C2CCS(=O)(=O)C2)cc1 (centres undefined),-3.7,-3.2,-1.3%&1.2%,0.5,1.3&-0.5,16.4&-9.2
Cc1ccc2c(c1)nnn2C1CCN(S(=O)(=O)c2ccc(C(=O)N(C)C)cc2)CC1,0.3,0.7,-0.2%,3.1,-0.4,-3.3
Cc1ccc(-c2cc(C(=O)Nc3cccnc3)c3ccccc3n2)s1,2.2,-13.6,1.4%,-2.2,1.0,30.3
Cc1ccc(C(C(=O)NC2CCCCC2)N(C(=O)Cc2c[nH]c3ccccc23)c2ccccc2)o1 (centres undefined),-3.6,9.6,24.6%[38.3 µM],23.5,1.8,104.0
CC(CN1CCCCC1)OC(=O)c1ccc(Cl)cc1 (centres undefined),-2.5,-4.2,-0.9%,0.2,-1.2,5.5
O=C(NC(NC(=S)Nc1ccc(Cl)cc1Cl)C(Cl)(Cl)Cl)c1cccc([N+](=O)[O-])c1 (centres undefined),-3.1,-14.2,?,2.8,0.0,-0.9
CN1CCN(c2nc3c(c(=O)n(C)c(=O)n3C)n2CC(=O)C23CC4CC(CC(C4)C2)C3)CC1,-3.8,2.0,15.4%[38.3 µM],-1.8,0.5,-3.2
FC(F)(F)c1ccccc1-n1c(CN2CCCCC2)n[nH]c1=S,10.4,1.4,0.9%,-14.4,0.0,-12.9
CC1=CC(=NNS(=O)(=O)c2ccc([N+](=O)[O-])cc2)CC(C)(C)C1,4.8,11.0,-0.5%,0.0,0.2,-1.6
CNc1nc(NCCOC23CC4CC(CC(C4)C2)C3)nc(OCC(F)(F)F)n1,-5.1,2.6,7.2%,7.0,-1.1,20.5
COc1ccccc1C(C)NC(=O)Cc1ccsc1 (centres undefined),-0.9,11.3,-0.1%,0.0,0.4,-9.1
c1ccc(C2COC(c3cccs3)=N2)cc1 (centres undefined),-0.5,8.1,4.1%[38.3 µM],11.8,2.8,-12.2
CCN(C(=O)CSc1nnc(-c2ccccc2F)n1N)c1c(N)n(Cc2ccccc2)c(=O)[nH]c1=O,7.3,7.7,0.7%,0.7,0.1,3.6
COc1cc(C(=O)NCc2nnc(SCC(=O)c3ccccc3)o2)cc(OC)c1OC,-1.1,-29.9,-1.8%,.,-1.1,-22.3
CCOCCCNC(=O)c1ccc(Br)cc1,-2.0,0.1,-1.2%,-1.4,0.1,-1.5

# Another view of two compounds above.
CNc1nc(NCCOC23CC4CC(CC(C4)C2)C3)nc(OCC(F)(F)F)n1
  D2 agonist: -5.1 | Six1-Eya2 inh: 2.6 | PINK1 expr mod: 7.2% | CtBP-E1A inh: 7.0 | TRPML1 agonist: -1.1 | TRPML1 blocker: 20.5

COc1ccccc1C(C)NC(=O)Cc1ccsc1 (centres undefined)
  D2 agonist: -0.9 | Six1-Eya2 inh: 11.3 | PINK1 expr mod: -0.1% | CtBP-E1A inh: 0.0 | TRPML1 agonist: 0.4 | TRPML1 blocker: -9.1

# The listing continues.
SMILES,D2 agonist,Six1-Eya2 inh,PINK1 expr mod,CtBP-E1A inh,TRPML1 agonist,TRPML1 blocker
COc1ccc(NS(=O)(=O)c2cc(NC(=O)c3ccccc3F)ccc2N2CCCC2)cc1,2.8,-8.8,2.9%,-8.8,1.4,67.7
COc1ccc(C(=O)Nc2ccc(-c3nc4cc(C)ccc4o3)c(O)c2)cc1,.,.,-0.3%,.,0.6,-21.5
O=C(CN1CCN(c2cccc(Cl)c2)CC1)Nc1ccc(S(=O)(=O)N2CCOCC2)cc1,?,-0.4,2.2%,1.1,0.0,-11.8
O=C(c1cc([N+](=O)[O-])ccc1N1CCN(S(=O)(=O)c2ccc(Cl)c(Cl)c2)CC1)N1CCOCC1,-0.4,-5.3,0.0%,1.1,-0.2,18.9
O=C1N[C@@H](Cc2c[nH]c3ccccc23)COC(=O)[C@H](Cc2ccc(F)cc2)C/C=C\C[C@H]1CC(=O)N(CCO)Cc1ccccc1,-0.3,-13.4,5.2%,-19.2,-1.0,6.2
Cc1cccc(C(=O)NC(C(=O)Nc2ccc(S(=O)(=O)Nc3nccs3)cc2)C(C)C)c1 (centres undefined),-4.0,-1.8,1.5%,18.0,0.1,13.8
Cc1ccc(N(C(=O)CCC(=O)Nc2cc(C)on2)C(C(=O)NC2CCCC2)c2ccccc2)cc1 (centres undefined),-4.2,1.0,1.1%,-8.5,1.6,-19.5
CCOC(=O)C1CCN(c2ncnc3c2oc2ccccc23)CC1,-2.8,0.5,1.3%[38.3 µM],5.9,0.8,-1.4
CCOC(=O)c1cc2cc3ccccc3cc2oc1=O,-1.3,3.3,-0.2%,-1.1,1.5,-18.5
CC1CCCC(NC(=O)COC(=O)[C@@H](NC(=O)c2ccccc2Cl)C(C)C)C1C (some centres undefined),3.3,9.1,-1.3%,-20.6,0.2,-20.6
COc1ccc(CCCNC(=O)C2(C)Cc3c(-c4ccc(C(N)=O)cc4)ccnc3O2)cc1 (centres undefined),6.8,-1.5,4.7%,5.3,-0.5,.
COc1ccccc1-c1nnc(SC2CCc3ccccc3NC2=O)s1 (centres undefined),-2.7,-6.7,-1.2%[38.3 µM],-3.7,1.2,-6.3
Cn1nnc2cc(C(=O)N3CCCCCC3)ccc21,-0.9,0.0,-0.8%,4.7,-0.6,-3.4
O=C(Nc1ccccc1)Nc1nnc(-c2ccccc2)s1,-12.0,0.5,-1.4%,.,0.6,-1.5
COc1ccc(S(=O)(=O)N(c2onc(C)c2Cl)S(=O)(=O)c2ccc(OC)c(OC)c2)cc1OC,-1.4,4.1,-1.2%,3.0,0.0,19.4
CN(C1CCCCC1)C(CNS(=O)(=O)c1ccc(Cl)cc1)c1ccccc1 (centres undefined),-3.6,0.8,6.1%,4.6,-0.6,32.0
Cc1ccc(S(=O)(=O)N2CC(=O)Nc3ccccc32)c(C)c1NS(C)(=O)=O,0.7,21.2,0.3%,0.0,1.2,5.8
